High-throughput results (PubChem)
HSD17B inhib – qHTS Assay for Inhibitors of HSD17B4, hydroxysteroid (17-beta) dehydrogenase 4 | 75,000 compounds, 7.6% hits | recombinant HSD17B10, NADH fluorescence kinetic; many of its hits are not listed in these tables | Potency, µM (series often up to 57.1 µM), for the others: at the top dose activity change, negative = inhibition, most hits filed as inhibitors; active = well fitted inhibition curve with a large enough effect; inconclusive = small, poorly fitted or top-dose-only effect; inactive = no such curve, though single readings can be large or run the other way;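 note: the protocol describes HADH2 (HSD17B10) and not the HSD17B4 of the title; nearly all actives have a fitted effect of over 70% in size; most hits overshoot -100% by far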
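20 nM HADH2, pH 9.0 Tris/Tween; cpd preinc 15 min RT; start w/ 1 mM NAD+ + 90 uM b-hydroxybutyryl-CoA; kinetic fluor ex360/em450 q30s x 4 min; delta last-first.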
The depositor's hits bear a star; u = inconclusive; [ ] = dose if it differs, or a comment. % is set by controls: 0 for no effect and ±100 for the full control effect; potency is the fitted concentration of half-maximal effect.

Preview (two entries):
SMILES	HSD17B inhib
N#C/C(=C(/O)CSc1nnc(Cc2cccs2)n1C1CCCCC1)c1nc2ccccc2[nH]1	32µM*
Cn1nccc1C(=O)NCCN1C(=O)OC(C)(C)C1(C)O (stereo not drawn)	-1%

All compounds of this part, previewed entries included:
SMILES	HSD17B inhib
N#C/C(=C(/O)CSc1nnc(Cc2cccs2)n1C1CCCCC1)c1nc2ccccc2[nH]1	32µM*
Cn1nccc1C(=O)NCCN1C(=O)OC(C)(C)C1(C)O (stereo not drawn)	-1%
COc1cc(/C=C/C(=O)O)cc(OC)c1OC	u
COCCN(C(=O)c1csnn1)C(C(=O)NC1CCCCC1)c1cccs1 (stereo not drawn)	5%
C=CCNC(=O)CCCOc1cc(C)ccc1C	0%
C=CCNc1oc(-c2ccc(OCC)cc2)nc1C#N	25µM*
Cc1nn(-c2ccccc2)c2c1C(c1ccccc1)C(C#N)=C(N)O2 (stereo not drawn)	-13%
COc1ccc(OC)c(NC(=O)c2c(NC(=O)c3ccco3)sc3c2CCC3)c1	-4%
COc1ccc(-n2c(Cc3cccn3C)nnc2SCC(=O)Nc2cccc(OC)c2)cc1	9%
C=C(C)Cn1c(CCCNC(=O)CC)nc2ccccc21	4%
Cc1ccc(C(=O)Nc2nc3ccccc3s2)s1	u
Cc1ccc(N2C(=O)c3ccc(C(=O)NCCN4CCOCC4)cc3C2=O)cc1	11%
COC(=O)N1CCC2(CCN(C(=O)NC(C)C)CC2)CC1	1%
O=C(NCC1CCCO1)c1c(O)c2ccccc2[nH]c1=O (stereo not drawn)	-8%
CN(C)c1ccc(C(c2nnnn2CCOC(=O)Nc2ccc(Cl)cc2)N2CCOCC2)cc1 (stereo not drawn)	3%
OCC(CO)(CO)N=Cc1c(O)ccc2ccccc12	-4%
COc1ccc(CCNc2nc(-c3ccco3)cc(C(F)(F)F)n2)cc1OC	0%
O=C(c1ccc(N2CCCC2=O)cc1)N1CCCCCC1	6%
COc1ccc(NC(=O)C2Cc3ccccc3CN2C(=O)c2ccccc2)cn1 (stereo not drawn)	-5%
CCOc1cccc2c1OC1(C)CC2NC(=O)N1c1cccc(F)c1 (stereo not drawn)	-1%
CCCCN(C(=O)CN1C(=O)C2CC=CCC2C1=O)c1c(N)n(CCC)c(=O)[nH]c1=O (stereo not drawn)	5%
Cc1cc(C)n2nc(SCC(=O)c3ccc[nH]3)nc2n1	-25%
COc1ccc(CCNC(=O)COc2ccc(S(=O)(=O)N3CCOCC3)cc2)cc1OC	3%
Cc1ccc(S(=O)(=O)NC(C(=O)OCC(=O)NC(=O)c2cccn2C)C(C)C)cc1 (stereo not drawn)	5%
CCCCc1nc2ccccc2n1Cc1nnc2n1-c1ccccc1SC2	7%
COc1cccc(-c2nnc(SCC(=O)Nc3cc(C)on3)o2)c1	-2%
CCc1c(C)sc(NC(=O)c2ccc(Br)o2)c1C(=O)OC	32µM*
COc1ccc(N2CCn3c2nc2c3c(=O)n(CCc3ccccc3)c(=O)n2C)cc1	4%
C[C@@](O)(CNS(=O)(=O)c1ccccc1)c1ccccc1	3%[11.4 µM]
COc1cc([C@H](O)C(=O)O)ccc1O	7%
Cc1ccc(NC(=O)CSc2nnc(Cc3cccn3C)n2-c2ccc(F)cc2)cc1	9%
O=C1C2C3C=CC(C3)C2C(=O)N1c1nccs1 (stereo not drawn)	0%
CCN(CC)c1ccc(NC(=O)CN2C(=O)CC(C)(C)S(=O)(=O)c3ccccc32)c(C)c1	-7%
CC(=O)NCCNc1nc(-c2ccccc2Cl)nc2ccccc12	-7%
CC(C)Cn1c(-c2ccccc2F)n[nH]c1=S	1%
CC(C)CC1NC(=O)N(CC(=O)c2ccc3c(c2)OCCO3)C1=O (stereo not drawn)	-9%
COc1ccc(OC)c(NC(=O)Cn2cc(C#N)c3cc(Br)ccc32)c1	-1%
CN1C(=O)c2ccc(S(=O)(=O)c3ccc(C(=O)O)cc3)cc2C1=O	-1%
Nc1ccc(N(S(=O)(=O)c2ccccc2)S(=O)(=O)c2ccccc2)c(Cl)c1	2%[11.4 µM]
CCN(CC)c1ccc(-n2cc3c(=O)n(C)c(=O)n(C)c3c2)cc1	25µM*
Cc1ccccc1NC(=O)C1Cc2ccccc2C(=O)O1 (stereo not drawn)	0%
Cc1nc(SCC(=O)NCCc2ccccc2)n[nH]1	-11%
CC(C)=CCC/C(C)=C/CC/C(C)=N/O	0%
O=C(Cn1[nH]c(=O)c2ccccc2c1=O)N1CC=C(c2ccccc2)CC1	-1%
Cc1cccc(N(C(=O)CCC(=O)Nc2ccccn2)C(C(=O)NC(C)C)c2ccc(O)cc2)c1 (stereo not drawn)	0%
O=C(COc1cccc2cccnc12)NCC(F)(F)F	-12%
O=C1NCCCC2c3cc(O)c4ccccc4c3OC12N1CCCCC1 (stereo not drawn)	u
O=C(Nc1nnc(C2CCCO2)s1)c1cccs1 (stereo not drawn)	25µM*
O=C(Cn1nnc(-c2ccccc2NC(=O)c2ccccc2F)n1)NCc1ccco1	u
C/C(N)=C(/C#N)C(=O)COC(=O)c1cc(S(=O)(=O)N2CCCCC2)ccc1C	3%
CCOC(=O)CC(=O)Nc1c(C)cc(C)cc1C	7%
Cc1cccc2cc(CN(CC3CCCO3)C(=O)NC3CCCCC3)c(=O)[nH]c12 (stereo not drawn)	u
C=CCOc1nc2c(c(=O)n(C)c(=O)n2C)n1C	7%
COc1ccccc1CN1CC(C(=O)NC2CCCCC2)CC1=O (stereo not drawn)	-4%
COc1ccc(Cl)cc1NC(=O)N(C)Cc1c(C)nn(C)c1C	4%
O=C(c1oc(=O)c2ccccc2c1-c1ccccc1)N1CCC(O)CC1	1%
Cc1ccc(C)c(NS(=O)(=O)c2ccc(OCC(=O)NCc3ccco3)cc2)c1	-7%
Cc1cc(C(=O)NC(C)C2CCCO2)cs1 (stereo not drawn)	2%
CC(=O)N1CCCC1C(=O)O (stereo not drawn)	2%
O=c1cc(CO)oc(C(Nc2ccccn2)c2ccsc2)c1O (stereo not drawn)	-25%

More results:
SMILES	HSD17B inhib
Cc1ccc2c(SCC(=O)NCc3ccco3)nc(-c3ccc(F)cc3)nc2c1	0%
Cc1[nH]c(=O)[nH]c(=O)c1S(=O)(=O)N1c2ccc(F)cc2CCC1C (stereo not drawn)	8%
Cc1cccc(N2CCN(C(=O)C3CCN(c4nnc(-n5cccc5)s4)CC3)CC2C)c1 (stereo not drawn)	6%
Cc1ccc(S(=O)(=O)N2CCCC(C(=O)NCc3cccnc3)C2)cc1Cl (stereo not drawn)	9%
N#Cc1nc(COc2ccccc2)oc1N1CCC(Cc2ccccc2)CC1	-1%
O=C(O)c1cc(-c2ccco2)nc2ccccc12	25µM*
CS(=O)(=O)N1CCC2(CCN(c3ccccc3)CC2)CC1	6%
O=C(O)c1ccc(Cl)c(S(=O)(=O)Nc2ccccc2Cl)c1	-8%
CC(NCCC(c1ccccc1)c1ccccc1)c1ccccc1 (stereo not drawn)	0%
CCS(=O)(=O)N1CCN(C2CCC(C)CC2)CC1 (stereo not drawn)	2%
Cc1nn(C)c(C)c1NC(=O)CSc1nc(-c2ccccc2F)nc2c1cnn2-c1ccccc1	-8%
O=C(CN1C(=O)c2ccccc2C1=O)Nc1cccc2cccnc12	2%

Reprinted at random: 4 records from the list
SMILES	HSD17B inhib
Cc1ccc(S(=O)(=O)N2CCCC(C(=O)NCc3cccnc3)C2)cc1Cl (stereo not drawn)	9%
Cc1ccc2c(SCC(=O)NCc3ccco3)nc(-c3ccc(F)cc3)nc2c1	0%
Cc1cccc(N2CCN(C(=O)C3CCN(c4nnc(-n5cccc5)s4)CC3)CC2C)c1 (stereo not drawn)	6%
CCS(=O)(=O)N1CCN(C2CCC(C)CC2)CC1 (stereo not drawn)	2%

More records follow.
SMILES	HSD17B inhib
CS(=O)(=O)N(CC(=O)NC1CCCCC1)c1cccc(Cl)c1	2%
O=C(CN1C(=O)CCC1=O)Nc1nc(-c2cccs2)cs1	2%
Cc1sc2ncnc(SCC(=O)c3cccs3)c2c1C	0%
Cc1oc2cc3c(C(=O)OCCN(C)C)c(C)oc3cc2c1C(=O)OCCN(C)C	8%
COc1nc2ccccc2c(=O)n1OCC(C)C	-7%
COc1ccc(-c2coc3cc(O)ccc3c2=O)cc1OC	25µM*
CC1=C(c2ccc(C)cc2)S(=O)(=O)N(CC(=O)O)C1=O	1%
Nc1n[nH]c2ccccc12	0%[11.4 µM]
COc1c(Cl)cc(Cl)cc1C(=O)Nc1ccccc1N1CCN(C(C)=O)CC1	-2%
CCOC(=O)N1CCN(C(=O)CCc2c(C)nc3nc(C)nn3c2C)CC1	8%
CCOc1ccccc1N(C)C(=O)C1CCN(S(=O)(=O)c2cccc3nonc23)CC1	-1%
CCOc1ccc(CN2CCN(S(=O)(=O)c3ccc(NC(C)=O)cc3)CC2)cc1OC	-7%
Cn1c(-c2ccc3c(c2)OCO3)cnc1NCc1cccc(Cl)c1	32µM*
COc1ccc(-c2cc(CCCC(=O)NCCc3cc(OC)ccc3OC)no2)cc1	-6%
O=S(=O)(NCc1ccc2c(c1)OCO2)c1cccc2cccnc12	-6%
CCCCCCCCOc1ccc(C(=O)O)cc1	2%
CC1CCc2nn(CC(=O)NCCC3=CCCCC3)cc2C1 (stereo not drawn)	7%
O=C(c1ccco1)N1CCN(C(=O)c2cnn3cccnc23)CC1	-11%
Cc1ccc(NC(=O)CCn2c(=O)oc3ccccc32)cc1	6%
O=C(COC(=O)c1ccc2c(c1)OCO2)NC1CCS(=O)(=O)C1 (stereo not drawn)	-1%
c1cn2c(NC3CCCC3)c(-c3ccc(N4CCOCC4)cc3)nc2cn1	-8%
COc1ccc(Br)cc1S(=O)(=O)N1CCOCC1	1%
COc1ccc(OCC(=O)Nc2ncc3c(n2)CC(C)(C)CC3=O)cc1	6%
Cc1ccc(C2=Nc3ccccc3NC(C)(c3ccc(C)o3)C2)o1 (stereo not drawn)	10%

In another format: seven of the compounds above.
Compound,HSD17B inhib
O=S(=O)(NCc1ccc2c(c1)OCO2)c1cccc2cccnc12,-6%
CCCCCCCCOc1ccc(C(=O)O)cc1,2%
CC1CCc2nn(CC(=O)NCCC3=CCCCC3)cc2C1 (stereo not drawn),7%
O=C(c1ccco1)N1CCN(C(=O)c2cnn3cccnc23)CC1,-11%
Cc1ccc(NC(=O)CCn2c(=O)oc3ccccc32)cc1,6%
O=C(COC(=O)c1ccc2c(c1)OCO2)NC1CCS(=O)(=O)C1 (stereo not drawn),-1%
c1cn2c(NC3CCCC3)c(-c3ccc(N4CCOCC4)cc3)nc2cn1,-8%

Further records.
SMILES	HSD17B inhib
CC1(C(=O)O)CCC(C(=O)N2CCOCC2)C1(C)C (stereo not drawn)	-7%
CC(C)N(Cc1nc(-c2ccccc2)no1)C(=O)c1ccc2c(c1)OCO2	11%
CCOC(=O)c1sc(N)c(C(=O)Nc2ccc(C)cc2C)c1C	32µM*
CCSc1oc(-c2ccco2)nc1S(=O)(=O)c1ccc(F)cc1	u
CCN(c1ccccc1)S(=O)(=O)c1cnc[nH]1	5%
Cc1ccc(-n2ncc3c2ncn2c(-c4ccncc4)nnc32)cc1	-3%
COCCOC(=O)c1c(C)n(C)c2ccc(OC(=O)N3CCOCC3)cc12	3%
CCc1ccccc1S(=O)(=O)Cc1ccc(C(=O)NCC2CCCO2)o1 (stereo not drawn)	1%
Cc1ccc2cc(COC(=O)c3ccncc3)c(=O)[nH]c2c1	34%[activator]
COc1ccc(C(=O)/C=C\N2CCOCC2)cc1	-5%
O=C(CSc1nnc(-c2ccco2)o1)c1ccccc1	-24%
O=C(NCC1CCCO1)c1cccnc1Nc1ccccc1F (stereo not drawn)	4%

Part of the list above in order of length of the SMILES, lowest first.
SMILES	HSD17B inhib
Nc1n[nH]c2ccccc12	0%[11.4 µM]
COc1ccc(C(=O)/C=C\N2CCOCC2)cc1	-5%
COc1ccc(-n2c(Cc3cccn3C)nnc2SCC(=O)Nc2cccc(OC)c2)cc1	9%

Further compounds.
SMILES	HSD17B inhib
CSc1nnc(Cn2c(=O)sc3ccccc32)n1-c1ccccc1C	-9%
O=C(CN1CCN(C2CCCCC2)CC1)c1ccc2cc[nH]c2c1	32µM*
CC1CCN(C(=O)C2Cc3ccccc3CN2S(=O)(=O)c2ccc(F)cc2)CC1 (stereo not drawn)	0%
COC(=O)[C@@H]1CC[C@H](C)[C@@H](c2ccc(C)cc2)N1C(=O)c1ccc(/C=N\OC[C@@H](O)[C@H]2O[C@H]3OC(C)(C)O[C@H]3[C@@H]2O)cc1	-2%[11.4 µM]
O=C(CN(C(=O)c1ccco1)c1cccc(F)c1)NCc1ccc(F)cc1	1%
COc1cccc(CC(NC(C)=O)C(=O)NC2CCN(c3c4c(nc5ncnn35)CCC4)CC2)c1 (stereo not drawn)	-8%
Cc1cc(-c2cccnc2)c(C#N)c(SCC#N)n1	-8%
CCOC(=O)c1ccc(NC(=O)Cn2cc3c(n2)CCC(C)C3)cc1 (stereo not drawn)	4%
Cc1noc(C)c1-c1nc(NCc2ccccc2)c2ccccc2n1	-16%
O=C(Nc1nc2ccccc2n1Cc1ccc(Cl)cc1)c1ccco1	u
Cc1ccc(NC(=O)c2ccco2)cc1C	9%
O=c1[nH]c(=O)n([C@@H]2O[C@H](CO)[C@@H](O)[C@H]2O)cc1F	-9%
CC(C)CCNC(=O)Cn1c(=O)oc2cc(S(=O)(=O)N3CCc4ccccc43)ccc21	-9%
O=c1cc(-c2ccccc2O)oc2cc(O)ccc12	-11%
O=C(NCCCN1CCOCC1)c1ccc(CS(=O)(=O)c2c(Cl)cccc2Cl)o1	1%
O=C(NCc1ccc(Cl)c(Cl)c1)c1cccnc1	-5%

This is a subset, so the mix of outcomes need not match the whole.
